StopGo FLuc: Primary qHTS Assay for Foot and Mouth Disease Virus Antivirals against NCGC Sytravon and CBC Compound Libraries: Firefly Luciferase Signal; HEK cells with a luciferase reporter of 2A StopGo recoding; actives 0.23% (n = 120,000); Potency, µM (series often up to 57.5 µM), without a hit: at the top dose signal change, negative = less light; AID 1745856, 2022; active = well fitted falling curve with a large enough effect; inconclusive = small, poorly fitted or top-dose-only effect; inactive = no such curve, though single readings can be large or run the other way; note: nearly all actives have a fitted effect of over 60% in size; overnight with compound
2A Renilla: Primary qHTS Assay for Foot and Mouth Disease Virus Antivirals against NCGC Sytravon and CBC Compound Libraries: Renilla Luciferase Signal; HEK cells with a luciferase reporter of 2A StopGo recoding; actives 0.32% (n = 120,000); Potency, µM (top dose mostly 57.5 µM), inactives show top-dose signal change, negative = less light; active means well fitted falling curve with a large enough effect; inconclusive means small, poorly fitted or top-dose-only effect; inactive means no such curve, though single readings can be large or run the other way; note: nearly all actives have a fitted effect of over 55% in size; overnight with compound
An asterisk follows results filed as active; ? = inconclusive; & = joins results of further samples; [ ] = remark or other dose. % is set by controls: 0 for no effect and ±100 for the full control effect; potency is the fitted concentration of half-maximal effect. Not all compounds are listed; count on the stated rates, not on these rows.

SMILES	StopGo FLuc	2A Renilla
N#Cc1ccc(NC(=O)c2nn(C3CCS(=O)(=O)C3)c3c2CCCC3)cc1 (stereo unspecified)	?	-7%
CCOc1ccc(CCNC(=O)c2ccc(CS(=O)Cc3cccc(Cl)c3)o2)cc1 (stereo unspecified)	-2%	-15%
CC(O)c1ccc(NC(=O)c2nn(C(C)C)c(=O)c3ccccc23)cc1 (stereo unspecified)	0%	14%
CCOc1ccccc1CNC(=O)c1cnc2c(-c3ccc(OCC)c(OCC)c3)c(C)nn2c1C	-9%	19%
COc1ccc(NC(=O)c2sc3nc4c(cc3c2N)CCCCCC4)cc1OC	6%	-4%
COC(=O)C(Cl)C(=O)OC	-25%	-14%
O=c1c2oc3ccccc3c2n(Cc2cccc(F)c2)c(=O)n1Cc1ccco1	-18%	-7%
O=C(Nc1ccc(F)cc1F)N1CCN(c2ccc(Cl)c(Cl)c2)CC1	0%	-8%
Cc1ccc(C(=O)Nc2ccc3oc(-c4ccc(C(C)(C)C)cc4)nc3c2)cc1	-9%	-21%
COc1ccccc1N1CCN(c2cc(C)nc3nncn23)CC1	0%	-22%
c1ccc(COc2cccc3[nH]ccc23)cc1	255%[activator]	24%
CCN(CCO)C(=O)Cc1nc(-c2ccccc2)oc1C	5%	-4%
CCC1=Nc2cc(C(=O)NCCCOC)ccc2Sc2ccc(Br)cc21	61%[activator]	79%[activator]
Cc1ccc(Cn2cc(CN(C)S(=O)(=O)c3ccccc3Br)nn2)cc1	-1%	16%
CCCNC(=O)NC(=O)COC(=O)c1csc(NCCC(C)C)n1	2%	1%
O=C1CCC(C(=O)OC2CCOC2=O)=NN1 (stereo unspecified)	-8%	-7%
CCCCCC#Cc1ccc(-c2ccc(CCCCC)cn2)cc1	0%	-7%[1.06 µM]
CCCN(CCC)CCNC(=O)Cn1cnc2sc(C)c(S(=O)(=O)N3CCC(C)CC3)c2c1=O	-3%	2%
Cc1nc2ncnn2c(C)c1CCC(=O)N1CCN(c2cccc(Cl)c2)CC1	0%	-18%
Cc1ccc(NC(=O)Cn2cc(/C=C3\NC(=O)NC3=O)c3ccccc32)cc1	-5%	-8%
O=C(Nc1ccc(Br)cc1F)N1Cc2cccn2-c2ccccc21	0%	0%
CCN(CCCNC(=O)c1cc2c(=O)n(C)c3ccccc3c2s1)c1ccccc1	-9%	-10%
N#C/C(=C\c1c[nH]c2ccccc12)C(=O)NC1CCCC1	189%[activator]	18%
CCC(=O)N1c2ccc(S(=O)(=O)N3CCN(c4ccccc4)CC3)cc2CC1C (stereo unspecified)	6%	6%

Gathered by group: those above with fluorine (three)
SMILES	StopGo FLuc	2A Renilla
O=c1c2oc3ccccc3c2n(Cc2cccc(F)c2)c(=O)n1Cc1ccco1	-18%	-7%
O=C(Nc1ccc(F)cc1F)N1CCN(c2ccc(Cl)c(Cl)c2)CC1	0%	-8%
O=C(Nc1ccc(Br)cc1F)N1Cc2cccn2-c2ccccc21	0%	0%

Next section:
SMILES	StopGo FLuc	2A Renilla
CSc1nc2ccccc2c(=O)n1CC(=O)c1ccccc1C	162%[activator]	56%[activator]
Cc1ccc(OCCN2CCC(CO)CC2)cc1	28%	12%
N#CC1=C(N)N(c2ccccc2C(F)(F)F)C2=C(C(=O)CCC2)C1c1ccsc1 (stereo unspecified)	-1%	80%[activator]
Cc1ccc(CNC(=O)c2nn(-c3ccc(F)cc3)c3c2CCC3)cc1	6%	12%
C=CCOc1ccc(CNCc2ccccc2)cc1	88%[activator]	-7%
COC(=O)c1ccccc1NC(=O)c1nc(-c2ccc(Cl)cc2)n2c1CCCCC2	-10%	-8%
O=C(NC1CCCC1)c1ccc2c(Cl)c3c(nc2c1)CCC3	28%	28%
CCOc1ccc(S(=O)(=O)Nc2cccc(C(=O)NC3CCN(C(C)C)CC3)c2)cc1	?	-26%
COc1ccc2c(c1)CC(C(=O)NCc1ccc(F)cc1)CO2 (stereo unspecified)	-6%	2%
Cc1cc(C)cc(C(=O)NCC(=O)NCCc2c[nH]c3ccccc23)c1	5%	6%
O/N=C/c1ccc(OCc2ccc(Cl)cc2Cl)cc1	3%	2%
Cc1ccc2nc(N(Cc3cccnc3)C(=O)c3ccco3)sc2c1	16%	3%
CC(C)c1ccc(-c2[nH]c3ccccc3c2C=O)cc1	0%	-9%
CC(=O)Nc1cccc(C(=O)O)c1O	6%	3%
COc1ccc(-c2nn(C)c(=O)c3ccccc23)cc1NC(=O)c1ccc(C)cc1	-10%	-9%
Cc1ccc(SCc2cc(=O)oc3c(C)c(O)ccc23)cc1	11%	8%
NC(=O)NNC(=O)Nc1ccccc1	7%	7%
Cc1ccc(C2CCCN2S(=O)(=O)c2ccc(C)cc2)cc1 (stereo unspecified)	7%	31%[activator]
c1n[nH]cc1C12CC3CC(CC(C3)C1)C2	99%[activator]	22%
Cc1ccc(C2C=C(c3ccccc3)Nc3nc(NS(=O)(=O)c4ccc(C)cc4)nn32)cc1 (stereo unspecified)	32%[activator]	40%[activator]
CC(C)OC(=O)c1c(-c2ccccc2Cl)csc1NC(=O)CCCC(=O)O	-10%	-1%
O=C(c1cc2cc(Cl)ccc2oc1=O)N1CCN(c2ccccc2)CC1	-5%	-8%
Cc1ccc(N2C(=O)c3oc4cc(C)c(C)cc4c(=O)c3C2c2cccc(O)c2)nc1 (stereo unspecified)	-14%	282%[activator]
COc1ccc(OCC(=O)N2CCN(Cc3cc(=O)n4nc(-c5ccc(OC)cc5)sc4n3)CC2)cc1	0%	-6%
COc1ccc(-c2noc(CSc3nc4ccccc4o3)n2)cc1OC	3%	1%
COc1ccc2c(C)c(CC(=O)NCc3ccc(Cl)cc3)c(=O)oc2c1	7%	4%
CCOC(=O)N1CCC(NC(=O)c2ccc3c(c2)N(Cc2cc(C)ccc2C)C(=O)c2ccccc2S3(=O)=O)CC1	0%	89%[activator]
CS(=O)(=O)N(Cc1csc(-c2cccs2)n1)C1CCN(C(=O)c2c(F)cccc2F)CC1	-8%	43%[activator]
Cc1ccc(NC(=O)COC(=O)CCNS(=O)(=O)c2ccccc2)c(Cl)c1	13%	-4%
CC(CCN1CCC(C(O)(c2ccccc2)c2ccccc2)CC1)Oc1ccc(C#N)c(F)c1 (stereo unspecified)	-15%	-10%
C[C@@H]1CCC2[C@](C)(COC=O)[C@@H](OC=O)CC[C@]2(C)[C@@]12CCC1(COC(=O)C1)O2 (stereo partly specified)	15%	13%
COCCN(C(=O)CCc1ccsc1)C1CC1	2%	6%
O=c1oc2c(CN3CCN(CCO)CC3)c(O)ccc2cc1-c1ccccc1	-15%	-9%
Cc1ccc(Nc2nc3ccccc3nc2NS(=O)(=O)c2cccs2)cc1Cl	-8%	-12%
N#Cc1cn(C2CC2)c(=O)n(Cc2coc(-c3ccc(Cl)cc3)n2)c1=O	8%	8%
CNc1oc(-c2ccc(C)cc2)nc1P(=O)(OC)OC	7%	5%

Whole records as entered above. Values in the order: StopGo FLuc, 2A Renilla
O=c1oc2c(CN3CCN(CCO)CC3)c(O)ccc2cc1-c1ccccc1 is listed as -15%, -9%
CS(=O)(=O)N(Cc1csc(-c2cccs2)n1)C1CCN(C(=O)c2c(F)cccc2F)CC1 is listed as -8%, 43%[activator]

Reprinted from the listing for reference:
SMILES	StopGo FLuc	2A Renilla
Cc1ccc(Nc2nc3ccccc3nc2NS(=O)(=O)c2cccs2)cc1Cl	-8%	-12%
N#Cc1cn(C2CC2)c(=O)n(Cc2coc(-c3ccc(Cl)cc3)n2)c1=O	8%	8%
CNc1oc(-c2ccc(C)cc2)nc1P(=O)(OC)OC	7%	5%

Next records
SMILES	StopGo FLuc	2A Renilla
CN(Cc1ccccc1)C(=O)c1cc(-c2ccccc2)nc2ccccc12	-28%	136%[activator]
Cc1ccc(S(=O)(=O)NCCc2cccc3cccnc23)cc1C	12%	192%[activator]
Cc1ccc(-n2nc3c(=O)n(CCCC(=O)NCc4ccc(F)cc4)nc(C)c3c2C)cc1	40%[activator]	49%[activator]
COc1ccc(-c2csc(NCCc3ccc(OC)c(OC)c3)n2)cc1	?	?
COc1cc(NC(=O)NCCn2nnc3cc(S(=O)(=O)N(C)C)ccc32)cc(OC)c1OC	-12%	-1%
Cc1cccc(N2CCN(C(=O)Cn3c(=O)c4cccn4c4ccc(F)cc43)CC2C)c1 (stereo unspecified)	-16%	9%
COc1ccc(NC(=O)c2ccc(N3CCCN(Cc4ccccc4C)C3=O)cc2)cc1	?	?
Fc1ccc(CNC(=S)Nc2ccc(Br)cc2)cc1	0%	-29%
COc1cccc2c(Nc3ccc(O)cc3)cc(C)nc12	7%	-9%
Cc1ccc(Cl)cc1N1CCN(S(=O)(=O)c2ccc3oc(=O)c4ncn(C)c4c3c2)CC1	-12%	-12%
O=C(NCCOCCn1c(=O)oc2ccccc21)Nc1ccc(Cl)cc1	1%	11%
O=S(=O)(C/C=C/c1ccccc1)Cc1coc(-c2ccc(F)cc2)n1	-2%	0%
CC(C)c1ccc(S(=O)(=O)c2cn(CC(=O)Nc3ccc(F)cc3)c3ccccc3c2=O)cc1	0%	-10%
COC(=O)c1c(NC(=O)NCc2cccnc2)sc2c1CC(C)(C)OC2	-4%	-1%
CCOC(=O)c1cccc(Nc2nc3ccccc3nc2NS(=O)(=O)c2cc(C)ccc2C)c1	-1%	-4%
COc1ccc(CCNC(=O)CSc2nnnn2-c2cccc(C(C)=O)c2)cc1OC	-9%&-12%	-6%&-13%
COC(=O)c1ccccc1NC(=O)C1CCN(S(=O)(=O)Cc2ccccc2Cl)CC1	4%	1%
O=C(OCCOc1ccc(F)cc1)c1n[nH]c(=O)c2ccccc12	43%[activator]	7%
COC(=O)c1ccc(Oc2coc3cc(OCc4ccc([N+](=O)[O-])cc4)ccc3c2=O)cc1	21%	4%
COc1ccc(-c2csc(-c3nc(-c4cc(C)ccc4C)cs3)n2)cc1	4%	6%
CN(C)CCNC(=O)c1ccc(-n2c(-c3ccccc3)cc3c2CCCCC3)cc1	63%[activator]	44%[activator]
COc1cccc(-c2cc(N3C(=O)Nc4ccccc4N3O)n[nH]2)c1	2%	-3%
O=C(NC(NCc1cccnc1)(C(F)(F)F)C(F)(F)F)c1cccnc1	17%	8%
O=C(Nc1ccc2c(c1)CCC2)c1ccc(Cl)cc1N1CCCC1=O	155%[activator]	12%
O=C(Oc1ccc(Cl)c(OC(=O)c2ccc(F)cc2)c1)c1ccc(F)cc1	10%	3%
CC(C)c1ccc(NC(=O)CSC2=Nc3ccccc3C3=NC(CCC(=O)NCc4ccc(F)cc4)C(=O)N23)cc1 (stereo unspecified)	30%	58%[activator]
S=C(NN=C1CCCCCCCCCCC1)NC1CCCCC1	0%	-6%
O=C(O)CCC(=O)N1N=C(c2ccsc2)CC1c1ccccc1Cl (stereo unspecified)	21%	0%
COC(C(=O)N/N=C(\C)CC(C)(C)c1ccccc1)c1ccccc1 (stereo unspecified)	15%	-5%
O=C(CCc1c[nH]c2ccccc12)NCc1ccc(Cl)cc1Cl	-4%	1%
N#C/C(=C/c1ccc(SC(F)(F)F)cc1)C(=O)NC1CC1	?	-2%[1.06 µM]
Cc1ccc(NC(=O)Cn2c(=O)n(Cc3nc(-c4ccccc4)no3)c(=O)c3cc4c(cc32)OCO4)cc1C	5%	14%
C/C(=N/NC(N)=S)c1ccc(Cl)cc1	-12%	-13%[1.06 µM]
CC(Cc1ccco1)NS(=O)(=O)N1CCCCC1 (stereo unspecified)	-4%	20%
CCCn1nnnc1CN1CCC(C(=O)c2ccc3c(c2)OCCO3)CC1	1%	-7%
Cc1cccc(OCC(=O)Nc2c(C(=O)Nc3ccc(F)cc3)oc3ccccc23)c1	0%	-5%
COc1ccc2nc(C)c(C(=O)NCc3cccnc3-n3cccn3)cc2c1	-7%	-14%
CCOCCCNC(=O)c1cc2cc(C)ccc2nc1C	17%	6%
Cc1ccc(NC(=O)c2ccc(Br)cc2)c(C(=O)c2ccccc2)c1	8%	5%
O=C(CCSCc1cccc(F)c1)NCc1ccccc1	-5%	4%
Cc1nc2cc(-c3ccccc3)nn2c(C)c1CCC(=O)NCc1ccc2c(c1)OCO2	?	7%
CN(C)CCCNC(=O)Cn1ccc2ccc(Br)cc21	-5%	-16%
Cc1ccc(CSc2nc3ccc(NC(=O)C(C)C)cc3s2)cc1	-4%	-3%
O=C(CCSc1nc2cc(Cl)ccc2s1)NC1CCCCC1	-3%	5%
CCOC(=O)C1CCN(CCC(=O)Nc2c(C(=O)OC)[nH]c3ccc(F)cc23)CC1	3%	1%
CCOC(=O)c1cc(-c2ccccc2)n(CCC(=O)Nc2cc(OCC)ccc2OCC)c1C	-16%	-10%
Cc1oc(-c2ccccc2)nc1CNC(=O)Nc1ccc(F)cc1	9%	55%[activator]
COc1ccc(CSc2nc3ccncc3n2CC(=O)Nc2cc(C)cc(C)c2)cc1	157%[activator]	19%
CS(=O)(=O)NCCc1ccc(C(=O)COc2ccccc2Br)s1	5%	-17%
Cc1ccc(C2=NC(C(F)(F)F)(C(F)(F)F)c3c(n(-c4ccccc4)c(=O)[nH]c3=O)N2)cc1	5%	3%
O=C(OCc1cc(=O)n2nc(-c3cccs3)sc2n1)c1cccc(F)c1	-9%	-8%
COC(=O)c1ccc(Oc2coc3cc(OC(=O)c4ccccc4Br)ccc3c2=O)cc1	9%	-7%
COC(=O)c1cc(S(=O)(=O)N2CCN(c3ccc(OC)cc3)CC2)c[nH]1	-12%	-3%
COc1ccc(C(=O)Nc2ccc(N3CCN(c4ccccc4)CC3)c(C(=O)O)c2)cc1	29%	-3%
O=C(COC(=O)c1cc2ccccc2oc1=O)c1ccc(I)cc1	-5%	-10%
